Vaccinia pol inh = vaccinia E9 polymerase processive synthesis inhibitors, primary screen, biochemical, absorbance | in vitro processive DNA synthesis, absorbance read-out; hits give low values; some inactives read as strong as hits | normalized absorbance, % (test concentration not listed) | Vaccinia virus DNA polymerase (E9) processive complex | 46,000 tested, 0.94% active;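 active = replicate mean up to 90% and picked by the depositor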;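 also: 100% = median of the test wells of a plate; 100 nL library stock went into each well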
Starred values were filed as active, the others as inactive.

SMILES | Vaccinia pol inh
CC1(C)CC(=O)C2=C(C1)N(c1ccccc1)C(=O)CC2c1cccnc1 (stereo unspecified) | 100
CC(C)c1ccc(NC(=O)C2CCC(CNS(=O)(=O)c3cccc4nsnc34)CC2)cc1 (stereo unspecified) | 101
COc1ccc(-c2cc(C(=O)N(C)Cc3ccccc3)no2)cc1 | 102
N/C(=N\O)c1ncc(C(F)(F)F)cc1Cl | 106
CC(=O)Nc1ccc2nc(NC(=O)CCc3ccccc3)sc2c1 | 101
Cc1ccc2c(c1)C(c1ccccc1)CC(C)N2C(=O)c1ccccc1F (stereo unspecified) | 100
CC(C)NCC(O)COc1ccc(CC(N)=O)cc1 (stereo unspecified) | 97
CN1CCN(Cc2cn[nH]c2-c2ccccc2)CC1 | 81
COC(=O)c1ccc(Nc2ccccc2)cc1 | 102
CC1Cc2ccccc2N1C(=O)CCn1c(=O)oc2ccccc21 (stereo unspecified) | 98
Cc1ccc(-n2cnc3c2C(=O)c2ccccc2C3=O)cc1 | 103
C=CCn1c(SCC(=O)N2CCCC2)nc2cc(C(=O)NCC3CCCO3)ccc2c1=O (stereo unspecified) | 100
COc1ccc(/C=C/C(=O)C2(O)CCCCC2)cc1OC | 100
O=C(NCC1COc2ccccc2O1)c1cc2ccccc2o1 (stereo unspecified) | 100
Cc1nc2ncnn2c(C)c1CCC(=O)N(C)c1ccccc1 | 92
CC(=O)NC(Sc1ccc(Cl)cc1)C(=O)c1ccccc1 (stereo unspecified) | 100
c1cc2c(cc1C1CCCCC1)c1c3n2CCCNC3CCC1 (stereo unspecified) | 97
COc1nc(Nc2ccccc2)nc(OCC(F)(F)F)n1 | 100
CCN1CCCC1CNC(=O)c1cc2c(=O)n(C)c3ccccc3c2n1C (stereo unspecified) | 51*
C#CCN(C)[C@H](C)c1ccccc1 | 102
CCCCN(C(=S)Nc1ccccc1CC)C1CCN(C(C)=O)CC1 | 100
CSc1nc2ccccc2n1Cc1ccc(C(C)C)cc1 | 92
COC(=O)c1cc2c(C(F)(F)F)cc(=O)[nH]c2s1 | 100
O=C(N(c1ccccc1)c1ccc(F)cc1)C12CC3CC(CC(C3)C1)C2 | 114
O=C(Cn1cnc2ccccc21)Nc1ccc2c(c1)OCCO2 | 102

Rewritten with each value named: four of the compounds above
COc1nc(Nc2ccccc2)nc(OCC(F)(F)F)n1
  Vaccinia pol inh = 100

CCN1CCCC1CNC(=O)c1cc2c(=O)n(C)c3ccccc3c2n1C (stereo unspecified)
  Vaccinia pol inh = 51*

C#CCN(C)[C@H](C)c1ccccc1
  Vaccinia pol inh = 102

CCCCN(C(=S)Nc1ccccc1CC)C1CCN(C(C)=O)CC1
  Vaccinia pol inh = 100

The results go on.
SMILES | Vaccinia pol inh
Cc1occc1C(=O)Nc1ccc(OCc2ccccc2)cc1 | 104
COc1cc(-c2ncnn2-c2sc3c(c2C#N)CCCCC3)cc(OC)c1OC | 100
CCN(C(=O)Cc1noc2ccccc12)c1cc(C)ccc1C | 103
Cc1oc(-c2ccc(Cl)cc2)cc1C(=O)N1CCC(O)(c2ccc(Cl)cc2)CC1 | 101
Cc1nc(C)c(Oc2ccc(Cl)cc2Cl)c(=O)[nH]1 | 101
O=C1NCCCC1c1n[nH]c(=S)n1-c1ccccc1Cl (stereo unspecified) | 107
FC(F)(F)c1cccc(Sc2ccc3nnc(Cl)n3n2)c1 | 112
CSc1nc2sc3c(c2c(=O)n1CC(C)C)CCC3 | 100
Cc1ccc(S(=O)(=O)Nc2ccc(-c3nc4ccccc4o3)cc2)cc1 | 100
CC(C)COC(=O)C(C)Oc1ccc2c3c(c(=O)oc2c1)CCC3 (stereo unspecified) | 100
COC(CNC(=O)CN1C(=O)/C(=C\c2ccc(Cl)cc2)Oc2ccc(C(C)(C)C)cc21)OC | 97
CCCCC(Sc1ccc2nnc(-c3ccc(F)cc3)n2n1)C(=O)O (stereo unspecified) | 97
CCCCC1(C)OC(=O)C(=Cc2ccc(SC)cc2)C(=O)O1 (stereo unspecified) | 100
CCOC(=O)c1[nH]c(C)c(CNc2ccccc2)c1C | 100
CCOc1ccccc1NC(=O)c1ccc(Br)cc1 | 100
Cc1ccc2nc(Nc3ccccc3)cc(C)c2c1 | 100
Cc1ccc(C)c(N2CCN(CCCNC(=O)CN3C(=O)CSc4ncccc43)CC2)c1 | 106
Cn1ncc2c(Nc3ccccc3)ncnc21 | 103
Cc1cc(C)c(S(=O)(=O)N2CCCCC2C(=O)O)c(C)c1 (stereo unspecified) | 99
CCC(Cc1ccccc1)NS(=O)(=O)c1ccc2c(c1)CC(C)N2C(=O)C1CC1 (stereo unspecified) | 90
Cc1cc(=O)[nH]c(-c2ccccc2)n1 | 109
CCCc1cc2c(-c3ccccc3)cc(=O)oc2cc1O | 101
COC(=O)C1c2ccccc2Oc2ccccc21 | 96
CCCSc1nc2c([nH]c3ccccc32)c(=O)n1-c1ccc(F)cc1 | 106
O=C(NC(=S)/C(=C(/[O-])c1ccccc1)[n+]1ccccc1)c1ccccc1 | 98
CN(c1cc(C(F)(F)F)ccn1)N1C(=O)CSCC1=O | 99
COc1ccc(CCNC(=O)CSc2nc3c(cnn3-c3ccc(C)cc3)c(=O)[nH]2)cc1OC | 96
O=C(CSC1=NCCS1)c1ccccc1Br | 91
Cc1nn(CC(N)=S)c(C)c1Br | 91
COC(=O)Sc1nnc(-c2ccc(Br)cc2)o1 | 93
O=C(CC12CC3CC(CC(Br)(C3)C1)C2)Nc1cccnc1 | 102
COC(=O)C1=C(NN(C)c2ccc(OC)cc2)CN(c2ccccc2)C1 | 100
O=C(Cc1ccc(F)cc1)NC1CCCCC1 | 99
CCc1ccc(NS(C)(=O)=O)cc1 | 100
CC1CCCCN1C(=O)c1ccc(Br)cc1 (stereo unspecified) | 96
Cc1cc(C(=O)CC#N)c(C)n1-c1ccccc1F | 105
O=C(NCC1COc2ccccc2O1)c1ccc2c(Cl)c3c(nc2c1)CCCC3 (stereo unspecified) | 107
CCn1c2ccccc2c2cc(NC(=O)COc3ccc(OC)cc3)ccc21 | 97
O=c1oc2ccc(Cl)cc2cc1-c1cn2ccccc2n1 | 90
CSC1=C(C#N)C(c2ccccc2Cl)C(C(=O)Nc2ccccc2)=C(C)N1 (stereo unspecified) | 89
CC(C)(C)CC[n+]1ccc(C(N)=O)cc1 | 100
CC(C)(C)/C(O)=C(/C#N)c1nc2ccccc2[nH]1 | 99
NC(=O)c1ccc(NC(=O)COc2cc(Cl)ccc2Cl)cc1 | 100
Cc1sc2nc(SCc3nnc(Nc4ccccc4)s3)nc(N)c2c1C | 93
C=CCN1C(=O)C2(/C(=C(/O)c3ccccc3)C(=O)C(=O)N2CCOC)c2ccccc21 (stereo unspecified) | 103
O=C(c1ccccn1)C1CC1c1ccccc1 (stereo unspecified) | 100
O=C(Cc1noc2ccccc12)Nc1ccc(F)cc1 | 93
CCC(C)OC(=O)COc1ccc2c(=O)c(-c3ccc(OC)c(OC)c3)c(C(F)(F)F)oc2c1 (stereo unspecified) | 101
CC1=C(C(=O)c2ccccc2)C(c2ccc(C)cc2)NC(=O)N1 (stereo unspecified) | 100
NNC(=S)NCCc1ccc(Cl)cc1 | 99

Of the compounds above, these have a COOH group:
SMILES | Vaccinia pol inh
CCCCC(Sc1ccc2nnc(-c3ccc(F)cc3)n2n1)C(=O)O (stereo unspecified) | 97
Cc1cc(C)c(S(=O)(=O)N2CCCCC2C(=O)O)c(C)c1 (stereo unspecified) | 99

More records.
SMILES | Vaccinia pol inh
NC(=O)c1c(NC(=O)C2CC2)sc2c1CCCC2 | 100
COc1ccc(Br)cc1S(=O)(=O)NCc1ccc2c(c1)OCO2 | 88
Cc1ccc(-n2nc3c(c2NC(=O)COc2ccc(Cl)cc2)CSC3)c(C)c1 | 100
O=c1oc(-c2ccccc2)nc2scc(-c3ccccc3)c12 | 97
Cc1ccc(C(=O)CSC2=C(C#N)C(c3ccco3)C3=C(CCCC3=O)N2)cc1 (stereo unspecified) | 89
CN1CCN(c2ccc(-c3ccnn3C(=O)Nc3cccc(C(F)(F)F)c3)cc2)CC1 | 93
COc1ccc(C2C(=O)c3cc(OC)c(OC)cc3C2c2ccccc2)cc1OC (stereo unspecified) | 100
CCN(CC)C(=O)/C=C/c1cn(-c2ccccc2)nc1-c1ccccc1 | 105
CCN(C(=O)C1CCCN(c2nc(-c3ccc(OC)cc3)no2)C1)c1ccccc1F (stereo unspecified) | 97
O=C(Nc1cnc2ccccn2c1=O)c1ccccc1 | 101
CN(Cc1ccccc1)S(=O)(=O)c1cn(C)cn1 | 106
CC(=O)Nc1ccccc1-c1nc2ccccc2s1 | 93
N#Cc1ccccc1Cn1cc(/C=C2\NC(=O)NC2=O)c2ccccc21 | 101
NCCc1ccc(O)c(O)c1 | 99
CCCCn1ccnc1C(=O)c1cc(Cl)cc(Cl)c1 | 88
CC(=O)On1cc(F)c(=O)[nH]c1=O | 100
CCS(=O)(=O)c1ccc(O)c(NC(=O)CCCC(=O)O)c1 | 103
C=CCN1C(=O)c2ccccc2Sc2ccc(C(=O)NC3CCCCC3C)cc21 (stereo unspecified) | 94
COc1ccc(-c2cc(C)nc(N)c2C#N)cc1 | 100
Cc1nn2cc(-c3ccc(-c4ccccc4)cc3)nc2s1 | 90
Nc1ccc2nc(SCc3cccc(F)c3)sc2c1 | 100
N#Cc1ccc(CSc2nc(-c3cccs3)c3c(c2C(=O)O)CCCC3)cc1 | 100
CN(C1CCCCC1)S(=O)(=O)C1CCS(=O)(=O)C1 (stereo unspecified) | 100
CC1(C)Cc2ccccc2-c2c1c(=O)n(Cc1ccccc1)c1n[nH]c(=S)n21 | 100
CC(C)C(=O)OCC1CCCN2CCCCC12 (stereo unspecified) | 100
Cc1nn(C)c(C)c1S(=O)(=O)N1CCC(C(=O)NC2CCCCCC2)CC1 | 104
CC(C)(C)c1cn2c3ccccc3n(N)c2n1 | 100
CCOC(=O)c1oc2nc(-c3ccco3)cc(-c3ccco3)c2c1N | 86
Cc1ccc(-n2c(SCC(=O)C(C)(C)C)nc3ccccc3c2=O)cc1 | 100
CCOC(=O)c1c[nH]c2ccc(C)cc2c1=O | 102
Cc1[nH]c(-c2ccc3c(c2)OCO3)nc1C(=O)O | 105
CN(C)C(=O)N1CCCC(C(=O)NCc2ccccc2)C1 (stereo unspecified) | 98
CCOC(=O)C1CCCN(C(=O)COc2ccc(C)c(C)c2)C1 (stereo unspecified) | 103
COc1ccc(N2CCN(CC(O)COC3C4(C)CCC(C4)C3(C)C)CC2)cc1 (stereo unspecified) | 92
Cn1cnnc1-c1cccc(NC(=O)C(c2ccccc2)c2ccccc2)c1 | 101
CC1(O)C[C@@]23C[C@@H](O)[C@@]4(O)[C@@H](C[C@H](O)C4(C)C)[C@](C)(O)[C@@H]2CCC1[C@H]3O (stereo partly specified) | 100
c1cc(CN2CCOCC2)ccc1CN1CCOCC1 | 102
O=C(CSc1cn(CC(=O)N2CCOCC2)c2ccccc12)N1CCOCC1 | 101
CCOC(=O)c1cc2c(=O)n3ccccc3nc2n(Cc2ccco2)c1=NC(C)=O | 106
COc1ccccc1/C=[N+]1\N=C([O-])C(NC(=O)c2cccc(C)c2)C1c1ccc(Cl)cc1 (stereo unspecified) | 100
Cc1ccc(NC(=S)N2CCn3c4c(c(=O)c5cc(C)ccc53)CCC42)cc1 (stereo unspecified) | 101
COc1ccc(C(NC(=O)C2CC=CCC2C(=O)O)c2ccccc2)cc1 (stereo unspecified) | 99
CCCNC(=O)Cn1c(C(=O)OC)ccc1-c1ccco1 | 104
O=C(C1c2ccccc2Oc2ccccc21)N1CCc2ccccc21 | 100
COc1ccc(C2=NOC(C(=O)N3CC4(C)CC3CC(C)(C)C4)C2)cc1OC (stereo unspecified) | 97
COc1ccc2oc(=Nc3ccccc3)c(C(N)=O)cc2c1 | 95
C/C=C1\CC(C)(CC)C(C#N)(C#N)C(N)=C1C#N (stereo unspecified) | 100
O=S1(=O)CCN(Cc2ccc(-n3cccn3)cc2)CC1 | 108
Cc1cc(C(F)(F)F)c2c(C)nn(-c3ccccc3)c2n1 | 101
N#CC(C#N)=Cc1ccc([N+](=O)[O-])c(O)c1 | 100

The list continues.
SMILES | Vaccinia pol inh
C(=C\c1ccco1)/C1=NN(Cc2ccccc2)CC1 | 103
O=S(=O)(c1cccs1)N1CCC(C(c2ccccc2)c2ccccc2)CC1 | 99
Cc1cc(NC(=O)CCN2C(=O)/C(=C\c3ccccc3F)SC2=S)no1 | 101
c1ccc2c(c1)CCCN2Cc1nnc2n1CCCCC2 | 68
Cn1c(=O)c2cc(C(=O)NCC3CCCO3)sc2c2ccc(Cl)cc21 (stereo unspecified) | 98
CCC(=O)Nc1nc2ccc(S(C)(=O)=O)cc2s1 | 101
CC(=O)Oc1ccc(C(=O)c2ccc(OC(C)=O)cc2)cc1 | 100
Clc1ccc(Cc2ccc(Cl)nn2)cc1 | 123
Cc1cc(C)nc(Nc2ncc(O)n2-c2ccc(Cl)c(Cl)c2)n1 | 100
COc1ccc(-n2nc(C(=O)NCC(=O)NCc3ccccc3OC)c3ccccc3c2=O)cc1 | 100
CCOC(=O)[C@@H]1[C@@H]2NC(=O)N[C@@]1(C)Oc1ccccc12 | 101
CCC(Sc1nnc2c3ccccc3n(C)c2n1)C(=O)Nc1ccccc1C#N (stereo unspecified) | 100
CCn1cc(C(=O)Nc2cccc(OC)c2)c2cc(OC)c(OC)cc2c1=O | 102
Cc1cc(C)cc(N2C(=O)C(C)SC23CCCCC3)c1 (stereo unspecified) | 100
O=C(CNC(=S)N(Cc1ccccc1F)C1CCCCC1)N1CCc2ccccc21 | 103
CC(C)CC(NC(=O)Nc1cccc2ccccc12)C(=O)O (stereo unspecified) | 103
Cc1cc(C)nc(N2CC(=O)N=C2N)n1 | 101

A portion of the library; rates above refer to the full screens.
